DT40 TDP1 CPT = qHTS for Inhibitors of human tyrosyl-DNA phosphodiesterase 1 (TDP1): qHTS in cells in presence of CPT. chicken DT40 Tdp1-/-;hTDP1 cells + 20 nM CPT, ATP luminescence, 48 h. 12% of 420,000 active. Potency, µM (top dose mostly 46.2 µM), inactives show at the highest dose activity change, negative = growth inhibition, usual class: inhibitors; also: nearly all actives have a fitted effect of over 55% in size
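Cell growth measured by CellTiter-Glo luminescence after a minimum 48 h, 37 C compound exposure with 20 nM CPT in Tdp1-knockout DT40 cells stably expressing hTDP1, seeded 400/well; qHTS titration format.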
GCN5L2 inh = qHTS Assay for Inhibitors of GCN5L2 | Histone acetyltransferase KAT2A (Homo sapiens), Q92830 | GCN5L2 HAT assay, ThioGlo1 CoA-SH fluorescence | 0.21% of 390,000 active | Potency, µM (top dose mostly 58.9 µM), inactives show at the top dose activity change, negative = inhibition, most hits filed as inhibitors
Target sequence (Q92830 whole entry, looked up): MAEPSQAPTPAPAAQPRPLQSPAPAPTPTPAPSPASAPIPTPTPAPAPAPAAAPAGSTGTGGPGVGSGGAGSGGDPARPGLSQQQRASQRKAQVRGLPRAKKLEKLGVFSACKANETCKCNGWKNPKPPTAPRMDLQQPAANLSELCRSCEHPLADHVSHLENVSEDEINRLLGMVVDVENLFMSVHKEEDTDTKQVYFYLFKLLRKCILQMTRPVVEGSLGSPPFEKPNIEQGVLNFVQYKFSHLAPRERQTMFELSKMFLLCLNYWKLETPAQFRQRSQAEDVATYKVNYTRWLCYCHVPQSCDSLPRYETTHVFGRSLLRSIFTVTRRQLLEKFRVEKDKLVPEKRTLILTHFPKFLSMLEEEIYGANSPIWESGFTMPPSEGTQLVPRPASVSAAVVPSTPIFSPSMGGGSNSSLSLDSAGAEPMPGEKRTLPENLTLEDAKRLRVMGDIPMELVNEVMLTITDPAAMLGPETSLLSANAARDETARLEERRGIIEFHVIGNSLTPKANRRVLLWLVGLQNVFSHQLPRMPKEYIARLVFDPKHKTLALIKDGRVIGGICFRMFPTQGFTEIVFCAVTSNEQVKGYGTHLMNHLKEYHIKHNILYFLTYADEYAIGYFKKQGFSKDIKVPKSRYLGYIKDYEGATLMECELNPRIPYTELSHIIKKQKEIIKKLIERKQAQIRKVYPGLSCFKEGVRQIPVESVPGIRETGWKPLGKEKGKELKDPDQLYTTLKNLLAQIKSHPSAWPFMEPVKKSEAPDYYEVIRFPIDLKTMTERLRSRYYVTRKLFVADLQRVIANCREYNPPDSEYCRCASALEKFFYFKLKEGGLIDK
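Titration-based screen in which CoA formation is detected via maleimide probe ThioGlo1 (50uM) turning fluorescent on thiol reaction; substrates H3(1-25) 75uM and acetyl-CoA 70uM, GCN5L2 20nM, 20 min incubation at room temperature.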
Starred values were filed as active, the others as inactive; ? = inconclusive; / = no result given; ! = repeats disagree; [ ] = remark or other dose. Calls follow the shape of the dose curve; as a rule, active = well fitted curve in the direction sought with a large enough effect; inconclusive = small, poorly fitted or top-dose-only effect, or another doubt; inactive = no such curve, though single readings can be large; an effect the other way counts as inactive or inconclusive. % is scaled to controls: 0 for no effect and ±100 for the full control effect; potency is read from the fitted curve at half-maximal effect. Not all compounds are listed; most or all hits stand in other tables.

SMILES	DT40 TDP1 CPT	GCN5L2 inh
O=Cc1c(NCCc2ccc(F)cc2)c2ccccc2[nH]c1=O	-17%	-3%
Cc1ccc(S(=O)(=O)c2nc(S(C)(=O)=O)sc2N2CCCC2)cc1	-1%	-2%
O=C(CCn1[nH]c(=O)c2ccccc2c1=O)NCCO	10%	/
Cc1cccc(-n2nnnc2SCC(=O)NC2CCCC2)c1	0%	-5%
CN(C)c1ccc(C2Nc3ccccc3C(=O)N2NS(=O)(=O)c2ccccc2)cc1 (stereo unspecified)	1%	-3%
N#C/C(=C\c1cn(Cc2ccc(F)cc2)c2ccccc12)C(=O)NCc1ccco1	18µM*	?
CCOCCOC(=O)c1[nH]c2c(c1C)C(=O)CC(c1cc(OC)c(OC)c(OC)c1)C2 (stereo unspecified)	10µM*	2%
COc1ccccc1CCNC(=O)C(=O)NCC(c1ccco1)S(=O)(=O)c1ccc(C)cc1 (stereo unspecified)	21µM*	1%
COc1c(C)cc(S(=O)(=O)N2CCCC2)c(C)c1C	-22%	-2%
CCCCNC(=O)C1CCN(S(=O)(=O)N2CCCCCC2)CC1	-3%	1%

As a short view, part of the list above:
SMILES	DT40 TDP1 CPT	GCN5L2 inh
O=Cc1c(NCCc2ccc(F)cc2)c2ccccc2[nH]c1=O	-17%	-3%
Cc1ccc(S(=O)(=O)c2nc(S(C)(=O)=O)sc2N2CCCC2)cc1	-1%	-2%
O=C(CCn1[nH]c(=O)c2ccccc2c1=O)NCCO	10%	/

Carrying on.
SMILES	DT40 TDP1 CPT	GCN5L2 inh
NN(CCO)C(=S)Nc1ccc(Cl)cc1	1%	-3%
O=C(Cc1c[nH]c2ccccc12)N[C@@H](Cc1c[nH]c2ccccc12)C(=O)O	1%	7%
Cc1nc2ccc(F)cc2cc1C(=O)NCC1CCCO1 (stereo unspecified)	-7%	-16%
Cc1[nH]c2ccccc2c1C(=O)COC(=O)CCS(=O)(=O)c1ccccc1Cl	?	-5%
Cc1cccc(C(=O)Oc2ccc(/C=N/NC(=O)Cc3ccc([N+](=O)[O-])cc3)cc2)c1	-7%	-4%
COc1ccc(CN2CCNC(=O)C2CC(=O)NCCCC2CCCC2)c(F)c1 (stereo unspecified)	?	-1%
CC(C)CCNC(=O)CCc1nnc2n(CCCOC(C)C)c(=O)c3ccccc3n12	-1%	-5%
COc1ccc(S(=O)(=O)N(CC(=O)NCc2ccc(C)cc2)c2ccc(Cl)cc2)cc1	-12%	15%
CCOC(=O)N1CCC(N2Cc3cccc(C(=O)Nc4c(C)cccc4CC)c3C2=O)CC1	?	-9%
CN1C(=O)NC(c2ccccc2)(C(F)(F)F)S/C1=C(/C#N)c1nnc(N2CCOCC2)n1-c1ccccc1 (stereo unspecified)	-2%	-4%
Cc1cccc(OCCSc2nc3ccccc3n2CCC(=O)O)c1	?	-2%
CCN(CC(=O)Nc1c(F)cccc1F)C(=O)C1CC1C (stereo unspecified)	4%	-4%
CC1=C(C(=O)N(C)C)C(c2ccc(Cl)c(Cl)c2)NC(=O)N1 (stereo unspecified)	-12%	1%
COc1ccc(NC(=O)CN(C)C(=O)c2c(C)nn(Cc3ccc(C)cc3)c2Cl)cc1	-34%	-5%
CC(C)CN1C(=O)C(=O)N(CC(=O)c2ccc3c(c2)OCO3)C1=O	27%	-2%
O=c1c2ccccc2nc(SCc2ccccc2)n1CC1CCCO1 (stereo unspecified)	?	-6%
Cn1c(SCc2cccc(F)c2)nnc1-c1ccccn1	-5%	-6%
Cc1ccccc1Nc1nnc(SCC2CCCCO2)s1 (stereo unspecified)	?	-3%
CC(C)c1ccc(/C=N/NC(=O)c2c(Cl)cnn2C)cc1	-7%	-6%
Cc1ccc(C(=O)N2CC(=O)Nc3ccc(F)cc3C2c2ccc(F)cc2)cc1 (stereo unspecified)	?	5%

Two entries picked at random from those above, as already listed:
SMILES	DT40 TDP1 CPT	GCN5L2 inh
CCN(CC(=O)Nc1c(F)cccc1F)C(=O)C1CC1C (stereo unspecified)	4%	-4%
O=c1c2ccccc2nc(SCc2ccccc2)n1CC1CCCO1 (stereo unspecified)	?	-6%

Carrying on:
SMILES	DT40 TDP1 CPT	GCN5L2 inh
COc1ccc(OCC(=O)Nc2ccccc2OC(F)F)cc1	5%	1%
Cc1ccc2c(=O)c(C(=O)c3cccc(Cl)c3)cn(CC(=O)Nc3ccccc3C(F)(F)F)c2n1	-2%	10%
COc1ccc2cc(C(c3nnnn3C3CCCC3)N3CCc4ccccc4C3)c(=O)[nH]c2c1 (stereo unspecified)	?	-4%
CCOC(=O)c1cccc(NC(=O)C2CCN(S(=O)(=O)c3c(C)noc3/C=C/c3ccc(C)cc3)CC2)c1	21µM*	4%
Cc1cccc(C)c1NC(=O)C(=O)NCC1CCCN1S(=O)(=O)c1cccs1 (stereo unspecified)	?	-3%
CC(C)(CNC(=O)CCC1CCCC1)CNC(=O)CCC1CCCC1	-19%	-20%
CCOC(=O)C1(Cc2ccccc2)CCN(Cc2cnc(N3CCOCC3)s2)CC1	-4%	-10%
CCCCNC(=O)c1cn(CC(C)C)c(=O)c2c1c1ccccc1n2C	7%	-1%
O=C(COc1ccccc1-c1nnc(-c2ccccc2)o1)Nc1ccc(Br)cc1F	?	28%
CN(C)CCCOC(=O)c1sc2ccccc2c1Cl	1%	?
CN(Cc1ccco1)C(=O)C1CCC(=O)N1Cc1ccc(F)cc1 (stereo unspecified)	9%	-4%
Cc1ccc2nc(N3CCN(C(=O)c4ccco4)CC3)c3nncn3c2c1	?	0%
Cc1ccc(Cn2ccc(NC(=O)c3nc4ncccn4n3)n2)cc1	-23%	/
O=C(c1ccc(Br)o1)N1CCN(Cc2ccc3c(c2)OCO3)CC1	-20%	-12%
CCCOc1ccc(C(C)(O)CN2CCOCC2)cc1 (stereo unspecified)	-2%	0%
O=C1CC(c2ccc(S(=O)(=O)NC3CC3)cc2)CN1 (stereo unspecified)	11%	4%
Cc1cc(=O)oc2ccc(OCc3ccccc3)cc12	?	-9%
Cc1ccc(-c2nn(Cc3ccccc3)cc2C(=O)NCC2CCCO2)cc1 (stereo unspecified)	1%	4%
O=C(Cc1ccc(NS(=O)(=O)c2cccc(C(F)(F)F)c2)cc1)NCCN1CCOCC1	-11%	-1%
CC1CCN(C(=O)Cn2cc(SCC(=O)Nc3ccccc3)c3ccccc32)CC1	-11%	-2%

Part of the list above, with values under each structure:
Order of results: DT40 TDP1 CPT	GCN5L2 inh
- O=C(c1ccc(Br)o1)N1CCN(Cc2ccc3c(c2)OCO3)CC1
→ -20%	-12%
- CCCOc1ccc(C(C)(O)CN2CCOCC2)cc1 (stereo unspecified)
→ -2%	0%
- O=C1CC(c2ccc(S(=O)(=O)NC3CC3)cc2)CN1 (stereo unspecified)
→ 11%	4%
- Cc1cc(=O)oc2ccc(OCc3ccccc3)cc12
→ ?	-9%

Remaining list, next part
SMILES	DT40 TDP1 CPT	GCN5L2 inh
CCOc1cc(CNn2cn[nH]c2=S)cc(Cl)c1OCc1ccccc1F	?	-3%
COc1ccc(OCC(=O)N2CCN(c3cccc(Cl)c3)CC2)cc1	?	-2%
CC(=O)c1ccc(S(=O)(=O)N2CCC(C(=O)Nc3ncc(C)s3)CC2)cc1	-8%	-6%
O=C(c1ccc(Cl)cc1)N1CCCCC(Cl)C1=O (stereo unspecified)	3%	-6%
O=C(CC(c1ccccc1)c1cc(Cl)ccc1O)N1CCCC1 (stereo unspecified)	?	-3%
COc1cccc(C2CC(c3ccc(C)cc3)Nc3nc(N)nn32)c1 (stereo unspecified)	-20%	-3%
CCCCn1c(SCc2cccc([N+](=O)[O-])c2)nc2ccsc2c1=O	?	-2%
COc1cc(/C=N\NC(=O)c2cccnc2)ccc1OC(=O)c1ccccc1Cl	-5%	?
Oc1c(C(c2ccc(Br)cc2)N2CCOCC2)sc2nc(-c3ccco3)nn12 (stereo unspecified)	-5%	0%
O=C(CCC1CCN(C(=O)c2ccccc2Cl)CC1)NCc1ccc(F)cc1	?	-14%
CCOC(=O)CC(=O)NC(C)(C)CCCCC(C)(C)NC(=O)CC(=O)OCC	-5%	1%
O=C(NCC(c1cccnc1)N1CCN(c2ccccc2)CC1)c1ccc2c(c1)OCO2 (stereo unspecified)	-22%	0%
CC(=O)Nc1sc(C)c(C)c1C(=O)OCC(=O)Nc1ccc(S(N)(=O)=O)cc1	0%	-4%
COc1cccc(CNC(=O)CC2C(=O)NCCN2CCCc2ccccc2)c1 (stereo unspecified)	?	4%
CN1c2ccc(C=O)c3c(C=O)ccc(c23)N(C)C1(C)C	21µM*	22%
COc1ccc(N(CC(=O)Nc2cccc(C(F)(F)F)c2)S(C)(=O)=O)cc1	?	-1%
CCN(C1CCCCC1)S(=O)(=O)c1c(C)n(C)c(=O)n(C)c1=O	8%	-1%
COC(=O)CS(=O)(=O)c1ccsc1C(=O)Nc1ccc(F)cc1	-1%	-1%
C#CCNC(=O)C1=C[C@@H](c2csc3ccccc23)[C@H](CCCO)[C@@H](OCC)O1	-17%	-4%
Cc1[nH]cc(Br)c(=O)c1Oc1ncc(C(F)(F)F)cc1Cl	-11%	0%
CNC(=O)CC1C(=O)N(C)C(=S)N1NC(=O)c1ccc(Cl)cc1 (stereo unspecified)	2%	2%
C/C(=N/NS(=O)(=O)c1ccc(Cl)cc1)c1cccc(O)c1	-20%	1%
CS(=O)(=O)N(CC(=O)N1CCCC1)c1cc(Cl)c(Cl)cc1Cl	-4%	-5%[0.501 µM]
Cc1ccc([N+](=O)[O-])cc1S(=O)(=O)Nc1ccc(O)c(Sc2ncn[nH]2)c1	9%	-9%
CSc1sccc1/C=N/O	2%	3%
COc1ccc(NC(=O)c2ccc3snnc3c2)cc1	-20%	1%
Cn1cc(CN2CCCCC2CO)c(-c2ccc(Oc3ccccc3)cc2)n1 (stereo unspecified)	?	-5%
CCCCC1CC(C)(C(=O)CSc2nc3ccccc3s2)OC1=O (stereo unspecified)	-3%	-1%
Cc1ccc(CNC(=O)COC(=O)c2nc(-c3ccccc3)oc2C)cc1	-24%	-4%
COc1ccc(CNCC(O)COCc2cccs2)cc1 (stereo unspecified)	-22%	-2%

Full records, quoted from the list.
COc1ccc(CNCC(O)COCc2cccs2)cc1 (stereo unspecified) as listed: DT40 TDP1 CPT = -22%; GCN5L2 inh = -2%
Cc1cc(=O)oc2ccc(OCc3ccccc3)cc12 as listed: DT40 TDP1 CPT = ?; GCN5L2 inh = -9%
CN(C)CCCOC(=O)c1sc2ccccc2c1Cl as listed: DT40 TDP1 CPT = 1%; GCN5L2 inh = ?

More structures:
SMILES	DT40 TDP1 CPT	GCN5L2 inh
Cc1sc(NC(=O)/C=C/c2ccc(C(C)C)cc2)c(C#N)c1C	?	-12%
COc1ccccc1C(=O)C1CCCN(C(=O)CCc2ccccn2)C1 (stereo unspecified)	-15%	1%
O=C(CSc1ccc(-c2ccco2)nn1)NC1CCCCC1	1%	-7%
O=S(=O)(Nc1ncccn1)c1ccc(NC(=S)Nc2ccc(Cl)cc2)cc1	?	-5%
COc1cccc(/C=N/NC(=O)c2cccs2)c1	-16%	1%
C/C(=N\NC(=O)c1ccccc1O)c1ccc(NC(=O)c2ccccc2)cc1	?	-11%
CNC[C@H](CC1CCCCC1)NC[C@H](NCCC1CCCC1)[C@H](C)O	16µM*	-10%
COc1ccccc1NC(=O)CN1C(=O)NC(CC(C)C)C1=O (stereo unspecified)	8%	-3%
CCN(CC(=O)Nc1c(F)cccc1F)C(=O)CCCNC(=O)c1ccc(Cl)cc1	0%	-10%
Cc1ccc(S(=O)(=O)Nc2ccc3c(c2)C(=O)N([C@H](C)CO)C[C@H](C)[C@@H](CN(C)C(=O)Nc2ccc(C(F)(F)F)cc2)O3)cc1	?	-7%
Cc1ccccc1CC1(CO)CCCN(C(=O)c2cc(-c3ccccc3)no2)C1 (stereo unspecified)	?	?
O=C(O)COc1cccc(NC(=O)C2CCCO2)c1 (stereo unspecified)	-9%	3%
O=S1(=O)CCO[C@H]2Cc3ccccc3[C@H]2N1Cc1ccccc1F	23µM*!	-3%
COc1ccc(F)cc1C(=O)C1CCCN(Cc2ccc(Sc3nncn3C)o2)C1 (stereo unspecified)	-2%	-19%
Cc1ccc(C(C)C)c(OCC(=O)NNCC(=O)Nc2cccc(F)c2)c1	15µM*	-13%
COc1ccc(-c2noc(CCC(=O)N(C)c3ccccc3C)n2)cc1	-23%	-5%
COCCn1c(=S)[nH]c2cc(C(=O)NCCc3ccccc3)ccc2c1=O	15%	0%
Cc1nnc(SCc2cccc([N+](=O)[O-])c2)o1	-5%	4%
CSc1ccc(NC(=O)N2CCN(c3nc4ccccc4s3)CC2)cc1	?	-11%
CCCc1nn(C)c2c1C(c1cccnc1)C(C#N)=C(N)O2 (stereo unspecified)	?	1%
COc1cccc(C2CC(C(F)(F)F)n3ncc(C(=O)NCc4ccco4)c3N2)c1 (stereo unspecified)	-19%	4%
Cn1c(=O)c2c(nc(N3CCNCC3)n2Cc2ccccc2Cl)n(C)c1=O	-3%	-10%
COc1ccc(-n2nc(C)c3c(C(F)(F)F)cc(-c4cccnc4)nc32)cc1	-18%	-2%
O=C(Nc1cccc(C(F)(F)F)c1)Nc1nnc(N2CCCCC2)s1	?	-5%

Source: PubChem (National Center for Advancing Translational Sciences (NCATS))
